# Screens as filed in PubChem.
# LANA-nucl inh – inhibitors of KSHV LANA-nucleosome binding, primary screen, biochemical, fluorescence polarization, FITC-LANA1-23, chicken nucleosomes; hit rate 0.3% among 51,000; z-score (concentration not given with the values); AID 720717, 2013; FITC-LANA1-23 / chicken nucleosome fluorescence polarization; stronger effect = lower value;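 active means both repeat wells score below -2 in polarization z-score versus plate sample wells, excluding overly bright wells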;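 further: 100 nL library stock added to about 30 µL; numbers are from one replicate; some results filed as inactive read as strong as hits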
#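 Assay system: purified chicken nucleosomes with FITC-labelled LANA N-terminal peptide (1-23) / Probe or stimulus: 50 nM FITC-LANA1-23 probe / Compound dosing: pin-transferred compound, 100 nL / Times: compound with peptide–nucleosome mix 10–45 min at room temperature / Technique: fluorescence polarization, 480 nm excitation, 535 nm parallel and perpendicular emission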
# Ab BasE inh – BasE siderophore enzyme inhibitors, primary screen, biochemical, Acinetobacter baumannii ATCC 17978, fluorescence polarization | purified BasE, fluorescence polarization binding displacement | inhibition, % (test concentration not listed) | hit rate 0.1% among 84,000;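 active means both replicates above 25% with normal brightness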;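 further: 0% = negative plate control signal and 100% = positive plate control signal; stock transfer was 100 nL into about 30 µL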
# An asterisk follows results filed as active; . = not tested or not shown; & = joins results of further samples. Only part of the results is shown; rates above refer to the full screens.
SMILES,LANA-nucl inh,Ab BasE inh
Cc1ccc(S(=O)(=O)Nc2ccccc2/C(O)=C(\C#N)c2nc3ccccc3n2C)cc1,.,1.0
Cc1ccc(C(=O)Nc2ccc(-c3nc4ccccc4o3)c(O)c2)cc1,-0.14,2.3
C[C@H](CCC(=O)O)[C@H]1CCC2C3C(=O)CC4CC(=O)CC[C@]4(C)C3CC(=O)[C@@]21C (stereo not given in full),0.16&-0.025,0.9
Cc1ccc(N2C(=O)SC(Nc3ccccc3)C2=O)cc1 (stereo not given),-0.97,0.7
OCc1cc(-c2ccccc2Cl)no1,0.19,.
CCCc1cc(=O)n2[nH]c(NC(=O)CC)nc2n1,-0.53,1.9
O=C(CS(=O)(=O)c1cn(CC(=O)N2CCCC2)c2ccccc12)Nc1ccccc1,-0.43,0.1
CC(C)(C)S(=O)c1cccs1 (stereo not given),-0.49,1.3
O=C(CSc1nnc(Cc2cccs2)n1C1CCCCC1)N1CCCc2ccccc21,.,-4.0
CN(CCOc1ccc(Br)cc1)C(=O)c1n[nH]c2ccccc12,.,1.4
CCc1ccccc1Nc1ccc(C(=O)O)cn1,0.098,-0.9
Cc1onc(-c2ccccc2)c1C(=O)n1nnc2ccccc21,.,1.3
Cc1ccccc1CN1CCN(CC(=O)NCc2cccs2)C1=O,-0.21,0.7
O=S(=O)(Nc1ncccn1)c1ccc(NC(=S)NCCN2CCOCC2)cc1,.,-1.4
CCC(c1nnc(SCC(=O)NCCc2ccc(Cl)cc2Cl)o1)N(C)C (stereo not given),.,4.5
CC(C)[C@H](NC(=O)C1CCCCC1)c1nc2ccccc2[nH]1,.,-0.2
COc1cc(/C=C2/SC(=O)NC2=O)cc(Br)c1O,0.6,-2.8
O=C(CN1C(=O)CCC1=O)Nc1nnc(-c2cccnc2)o1,-0.7,8.7
COc1ccc(C2Nn3c(C)nnc3SC2C(=O)Nc2ccccc2C(F)(F)F)cc1 (stereo not given),-0.7,-0.6
O=c1[nH]c(O)c(C=Nc2ccccc2)c(=O)[nH]1,0.77,3.1
CC(C)N(Cc1ccccc1)C(=O)c1ccccc1C(=O)O,0.026,.
COC(=O)c1cnn(-c2ccccc2)c1C(OC)OC,.,2.5
CCOC(=O)c1c(NC(=O)c2ccc(Cl)s2)sc2c1CCN(C(C)=O)C2,-0.83,1.2
CCN(CC)S(=O)(=O)c1ccc(C(=O)Nc2nnc(-c3ccc(S(C)(=O)=O)cc3)o2)cc1,-0.56,3.2
CCc1nn(CCCC(=O)N2CCN(c3cccc(C)c3C)CC2)c(=O)c2cc3occc3n12,-0.95,-0.6
COC(=O)c1ccccc1Oc1c(F)c(F)nc(N2CCCCC2)c1F,0.29,6.7
Cc1nn(C)c(C)c1/C=C/C(=O)N1CCN(Cc2cccc(Cl)c2)CC1,.,3.0
CC(C)n1c(SCC(=O)c2ccccc2)nc2cc(Cl)ccc21,.,2.5
Cc1ccc2oc(-c3ccccc3)cc(=NCCN(C)C)c2c1,.,0.7
Cc1cccc(Nc2cc(N3CCCCC3)ncn2)c1,0.23,-0.3

# Reformatted tab-delimited: entries from further up
SMILES	LANA-nucl inh	Ab BasE inh
OCc1cc(-c2ccccc2Cl)no1	0.19	.
CCCc1cc(=O)n2[nH]c(NC(=O)CC)nc2n1	-0.53	1.9
O=C(CS(=O)(=O)c1cn(CC(=O)N2CCCC2)c2ccccc12)Nc1ccccc1	-0.43	0.1
CC(C)(C)S(=O)c1cccs1 (stereo not given)	-0.49	1.3
O=C(CSc1nnc(Cc2cccs2)n1C1CCCCC1)N1CCCc2ccccc21	.	-4.0
CN(CCOc1ccc(Br)cc1)C(=O)c1n[nH]c2ccccc12	.	1.4
CCc1ccccc1Nc1ccc(C(=O)O)cn1	0.098	-0.9
Cc1onc(-c2ccccc2)c1C(=O)n1nnc2ccccc21	.	1.3
Cc1ccccc1CN1CCN(CC(=O)NCc2cccs2)C1=O	-0.21	0.7
O=S(=O)(Nc1ncccn1)c1ccc(NC(=S)NCCN2CCOCC2)cc1	.	-1.4
CCC(c1nnc(SCC(=O)NCCc2ccc(Cl)cc2Cl)o1)N(C)C (stereo not given)	.	4.5
CC(C)[C@H](NC(=O)C1CCCCC1)c1nc2ccccc2[nH]1	.	-0.2
COc1cc(/C=C2/SC(=O)NC2=O)cc(Br)c1O	0.6	-2.8
O=C(CN1C(=O)CCC1=O)Nc1nnc(-c2cccnc2)o1	-0.7	8.7
COc1ccc(C2Nn3c(C)nnc3SC2C(=O)Nc2ccccc2C(F)(F)F)cc1 (stereo not given)	-0.7	-0.6
O=c1[nH]c(O)c(C=Nc2ccccc2)c(=O)[nH]1	0.77	3.1
CC(C)N(Cc1ccccc1)C(=O)c1ccccc1C(=O)O	0.026	.
COC(=O)c1cnn(-c2ccccc2)c1C(OC)OC	.	2.5
CCOC(=O)c1c(NC(=O)c2ccc(Cl)s2)sc2c1CCN(C(C)=O)C2	-0.83	1.2
CCN(CC)S(=O)(=O)c1ccc(C(=O)Nc2nnc(-c3ccc(S(C)(=O)=O)cc3)o2)cc1	-0.56	3.2
CCc1nn(CCCC(=O)N2CCN(c3cccc(C)c3C)CC2)c(=O)c2cc3occc3n12	-0.95	-0.6
COC(=O)c1ccccc1Oc1c(F)c(F)nc(N2CCCCC2)c1F	0.29	6.7
Cc1nn(C)c(C)c1/C=C/C(=O)N1CCN(Cc2cccc(Cl)c2)CC1	.	3.0
CC(C)n1c(SCC(=O)c2ccccc2)nc2cc(Cl)ccc21	.	2.5
Cc1ccc2oc(-c3ccccc3)cc(=NCCN(C)C)c2c1	.	0.7
Cc1cccc(Nc2cc(N3CCCCC3)ncn2)c1	0.23	-0.3

# (further entries)
SMILES,LANA-nucl inh,Ab BasE inh
Cc1cc(C)c(C(=O)CSc2nnc(C)n2N)cc1C,.,-0.5
CCCCNc1nc2ccccc2n1Cc1cccc(OC)c1,.,-1.4
CCc1ccccc1Nc1nc(N)nc(CSc2nnc(-c3cccs3)n2CC2CCCO2)n1 (stereo not given),.,-0.6
COc1ccccc1N1CCN(C(=O)C(OC(C)=O)c2ccccc2)CC1 (stereo not given),.,2.3
O=C(Nc1ccccc1)c1snc2c(=O)[nH]cnc12,-1.1,-0.3
Cn1c(SCC(=O)N2CCCCC2)nc2ccccc2c1=O,-1.3,1.6
COC(=O)c1c(-c2ccc(F)c(F)c2)cn2c1SCC2=O,.,-11
COc1ccc(S(=O)(=O)N(C)c2ccnc(C(=O)N3CCc4ccccc43)c2)cc1,-0.54,-3.6
COc1ccc(-c2csc(N/N=C\c3ccc(O)cc3)n2)cc1,1.1,4.0
CC(SCC(=O)Nc1ccc(S(=O)(=O)N(C)C)cc1)C(=O)O (stereo not given),.,0.8
Cc1cc(C(=O)COc2ccc(Cl)cc2Br)c(C)n1C,.,2.2
Cc1cc(=O)oc2cc(NC(=O)C3COc4ccccc4O3)ccc12 (stereo not given),.,0.1
CCCC(=O)N1c2ccccc2NC2=C(C(=O)CCC2)C1c1ccc(OC)c(OC)c1 (stereo not given),.,0.1
O=C(c1ccccc1)C1CCN(S(=O)(=O)c2cc(C(F)(F)F)cc(C(F)(F)F)c2)CC1,-0.9,3.0
C=CCN(CC(=O)O)S(=O)(=O)c1ccccc1C(F)(F)F,.,0.0

# Of the compounds above, these have a CF3 group.
SMILES,LANA-nucl inh,Ab BasE inh
COc1ccc(C2Nn3c(C)nnc3SC2C(=O)Nc2ccccc2C(F)(F)F)cc1 (stereo not given),-0.7,-0.6
O=C(c1ccccc1)C1CCN(S(=O)(=O)c2cc(C(F)(F)F)cc(C(F)(F)F)c2)CC1,-0.9,3.0
C=CCN(CC(=O)O)S(=O)(=O)c1ccccc1C(F)(F)F,.,0.0

# (continued)
SMILES,LANA-nucl inh,Ab BasE inh
N#CCSc1ncc(C(F)(F)F)cc1Cl,-1.2,.
FC(F)Oc1ccc(NC(=S)NC2CCCC2)cc1,.,-0.8
CN1C(=S)N(C2CCCCC2)C(=O)/C1=C/c1ccc(-c2ccc(Br)cc2)o1,2.1,-7.1
O=C1c2ccccc2C(O)(c2ccccc2)N1C1CCCC1 (stereo not given),0.15,-1.4
CC(C)CC(=O)N1CCN(c2ccc(F)cc2)CC1,0.49,-0.7
O=C(Oc1ccc2c(c1)OCO2)[C@@H]1CCCN1S(=O)(=O)c1ccc(Cl)cc1,.,-0.8
CCc1ccc(OCCCC(=O)O)c(Br)c1,0.58,-2.7
CC(C)(C)C(=O)CC(=O)Nc1ccc(Cl)c(N)c1,0.73,1.2
COC(=O)c1ccc(NC(=O)CNC2CCCCCC2)cc1,.,-2.6
O=c1[nH]nc(SCc2cccc3ccccc23)c(=O)[nH]1,-0.49,6.0
COc1cccc(CNC(=O)CSC)c1,.,-0.3
Cc1cc(N=Cc2c(O)n(-c3ccc(C)c(C)c3)c(=O)c3ccccc23)no1,.,-1.9
Cc1c(N2CCCC2)cc2c(c1N)C(C)(C)CC2(C)C,.,3.6
Cc1ccc(-n2nnc(S(=O)(=O)c3ccc(C)cc3)c2N)cc1,-0.39,-1.3
CC(=Nc1ccccc1)Nc1ccccc1,-0.54,-1.8
CC(=O)NCCC(=O)Nc1ccc(OC(F)F)cc1,.,0.8
Cc1ccc(CNC(=O)c2cn(C)c3ccc(S(=O)(=O)N4CCCC4)cc3c2=O)cc1,0.47,1.1
CCN(CC)c1ccc(C(=O)OCC(=O)c2ccc(OC(F)F)cc2)cc1,.,1.4
Cc1csc(-c2nonc2N)n1,.,0.6
Cc1ccccc1OCC(=O)N1CCCc2ccccc21,-0.41,7.0
CCCNC(=O)COc1ccc(Br)cc1C,-1.1,-0.3
O=C(NCC1CCCO1)c1cccc(-n2cnnn2)c1 (stereo not given),.,0.8
COc1ccc(N2CCN(Cc3ccc(Cl)nc3)CC2)cc1,-0.037,.
Cc1ccc(OCC(=O)Nc2cccnc2)c(-n2nc3ccccc3n2)c1,-1.4,1.6
CCOc1ccc(Cl)cc1S(=O)(=O)N1CCC(C(=O)NC(C)COC)CC1 (stereo not given),1.7,-0.8
O=c1c(C=NCc2ccc3c(c2)OCO3)c(O)n(C2CCCCC2)c(=O)n1C1CCCCC1,0.61,3.4
CN(C/C=C/C#CC(C)(C)C)Cc1cccc2ccccc12,-0.14&-0.43&-0.12,.
COc1cc(OC)c(NC(=O)Cn2c(=O)n(C)c(=O)c3ccccc32)cc1Cl,-0.24,4.0
N/C(CS(=O)(=O)Cc1cccc(C(F)(F)F)c1)=N\O,.,1.9
O=c1[nH]nc(Sc2ncnc3sc4c(c23)CCCCC4)n1CC1CCCO1 (stereo not given),.,1.5
COc1ccc(CCNC(=O)c2nn(C)c3c2COc2ccccc2-3)cc1OC,-1.5,0.3
